PrP UTR inh: suppresses PrP 5' UTR mRNA reporter expression; AID 488862; actives 0.35% (n = 340,000); cell-based PrP 5' UTR mRNA reporter, plate reader; inhibition, % (test concentration not listed);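 active = every replicate at 50% or more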;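 note: 0 = median of the neutral control wells; tested in H4 reporter cells; numbers are from one replicate; inactives centre near -14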
Autofluor counter: flagged as autofluorescent in microsphere protease counterscreen. fluorescence intensity (concentration not given with the values). actives 3.1% (n = 360,000). AID 624483. compound autofluorescence counterscreen, microsphere flow cytometry; active compounds read high;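 active = at least 3 SD above the mean of all compounds, about 16000 in these data; inconclusive = too few beads counted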;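 note: 100 nL of 1 mM stock went into each well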
* = called active by the depositor; ? = inconclusive. An excerpt; count on the stated rates, not on these rows.

SMILES	PrP UTR inh	Autofluor counter
O=C(O)c1ccccc1C=NNc1ccccn1	9	3198
CC(=NO)c1ccc2c(c1)Cc1cc([N+](=O)[O-])ccc1-2	-2	2972
N#CC1(Nc2ccc(-c3ccc(Cl)cc3)cc2)CCCC1	-39	4141
O=C(Nc1ccncc1)C1CC(=O)N(c2ccccc2)C1 (stereo unspecified)	-43	3882
COc1ccc(S(=O)(=O)Nc2ccc3c(c2)CC(=O)N([C@H](C)CO)C[C@H](C)[C@H](CN(C)C(=O)Nc2ccc4c(c2)OCO4)O3)cc1	-29	3985
CCOC(=O)c1cccc(C2=CC(=O)C[C@H](c3ccc(Cl)cc3)C2)c1	-17	3914
C[C@H]1CN(S(=O)C(C)(C)C)[C@@H](CCO)/C1=C\c1ccccc1 (stereo partly specified)	-27	3617
COc1ccc(OC)c(-c2c3cc(O)c(=O)cc-3oc3cc(O)c(O)cc23)c1	-15	2528
C[C@H](CO)N1C[C@H](C)[C@@H](CN(C)C(=O)Nc2ccc(C(F)(F)F)cc2)Oc2ccc(NC(=O)c3ccncc3)cc2C1=O	-23	3499
Cn1c(=S)c2[nH]c(SCC3CCCO3)nc2n(C)c1=O (stereo unspecified)	-9	3160
CC(C)(C)S(=O)N1Cc2cc(=O)n(Cc3ccccc3)c(CCO)c2[C@@H]1CCO (stereo partly specified)	7	4217
O=C(C[C@@H]1C/C=C\C[C@H](NC(=O)OCC2c3ccccc3-c3ccccc32)C(=O)OC[C@H]2CCCN2C1=O)NCCO	5	4151
CCN1C[C@@H]2[C@@H]3C(=O)N(Cc4ccccc4)C(=O)[C@@H]3[C@](CC)(C1=O)N2C(=O)c1ccc(Br)cc1	-23	4018
C[C@H]1CN([C@@H](C)CO)C(=O)Cc2cc(NC(=O)Cc3ccccc3)ccc2O[C@H]1CN(C)S(=O)(=O)c1cccs1	-6	3077
CCC(C)(O)C(=O)OC1C(=O)OC2CC3C(C)=CC(=O)C(O)C3(C)C3C4(O)OCC23C1C(C)C4O (stereo unspecified)	79*	2921
C[C@H](CO)N1C[C@H](C)[C@@H](CN(C)C(=O)Nc2ccc(C(F)(F)F)cc2)Oc2c(NC(=O)Nc3ccc(C(F)(F)F)cc3)cccc2C1=O	8	3928
CC(=O)N1CCN(S(=O)(=O)c2cccc(C(=O)NNC(=O)c3ccc(Br)cc3)c2)CC1	-57	3787
CCOC(=O)c1ccc(N(CCC2CO2)S(=O)(=O)c2ccc(C)cc2)cc1 (stereo unspecified)	-16	2933
Cc1ccc(CN(C)c2ccc(S(=O)(=O)N3CCCC3)cn2)cc1	-19	4368
COc1ccc(C(=O)O)cc1OC	-65	4958
Cc1c(O[C@@H]2O[C@H](CO)[C@@H](O)[C@H](O)[C@H]2O)c(CO)c(O[C@@H]2O[C@H](CO)[C@@H](O)[C@H](O)[C@H]2O)c2c1O[C@@H](c1ccccc1)C[C@@H]2O	3	3942
CCOC(=O)[C@H]1[C@H]2COc3cc(OC)ccc3[C@@H]2N2C(=O)c3c(C)cc(C)cc3NC(=O)[C@@]12C	-9	2974
CN(C(=O)c1cccc(NC(=O)Cc2ccc(NC(=O)C3CCN(C(=O)C4CCCCC4)CC3)cc2)c1)C1CCC1	14	3462
OCC[C@H]1C[C@H](O)[C@@H](O)[C@]2(CCc3ccccc3CO2)O1	-18	3049
CN1C(=O)N(C)C(=O)C(NS(=O)(=O)c2ccc(N)cc2)(c2ccccc2)C1=O	10	3850
COC(=O)[C@]1(C)N[C@H](c2ccc(-c3ccc(OC)cc3)cc2)[C@@H]2C(=O)N(C)C(=O)[C@@H]21	-9	2925
CCCCNc1ccc2c(c1)C1CC2CCN1C(=O)OCc1ccccc1 (stereo unspecified)	-56	3662
c1ccc2c(-c3ccc(OCCN4CCCCC4)cc3)c(-c3ccsc3)sc2c1	-10	4314
O=C(NN=Cc1ccccc1Cl)c1cccc2ccccc12	-62	3666
Cc1cc(C)n2nc(N)nc2n1	15	3049
CCCCCCSc1cc(-c2nc3cnccn3c2NCCCC)ccc1OC	-14	4152
CCOc1ccc(/C=N/NC(=O)Cc2ccccc2)cc1CN1CC2CC(C1)c1cccc(=O)n1C2 (stereo unspecified)	-14	5463
COc1ccc(CNC(=O)Cn2cc(C)c(=O)[nH]c2=O)cc1	-25	3954
O=C(O)c1cc(N/C(=N\S(=O)(=O)c2ccc(F)cc2)c2ccccc2)ccc1O	-10	5795
O=C(NC1CCCCC1)NS(=O)(=O)c1ccc2c(c1)CCC2	34	4198
COc1ccc(CN(C)C(=O)Cn2cc(C)c(=O)[nH]c2=O)cc1OC	7	3648
CC=C(CC)C1(CCC)C(=O)NC(=S)NC1=O	-15	3873
COCCn1c(SCC(=O)Nc2c(C)n(C)n(-c3ccccc3)c2=O)nnc1-c1ccncc1	-3	3722
O=C(Nc1cc2c(cc1Cl)-c1ccc([N+](=O)[O-])cc1C2=NO)C(F)(F)F	-4	3543
C/C(=N\NC(=O)c1ccc2ccccc2c1)c1cccs1	-66	5096
Cc1ccc(S(=O)(=O)N2[C@@H](c3cccc(Cl)c3)C(C(=O)O)=CC[C@H]2c2ccc(C(C)C)cc2)cc1	-30	4038
O=c1/c(=C\c2cccn2-c2ccccc2)sc2nc3ccccc3n12	-24	4017
Nc1cc2c(cc1Cl)-c1ccc([N+](=O)[O-])cc1C2=NO	6	?
N#Cc1c(/N=C/c2ccc(-c3ccc(C(=O)O)c(Cl)c3)o2)sc2c1CCCC2	-12	?
O=C(N/N=C\C=C\c1ccc2c(c1)OCO2)c1cccnc1	-11	2071
CCOc1ccc(NC(=S)N2CCC(C(=O)c3ccc(F)cc3)CC2)cc1	-14	3828
COC(=O)C1=C(c2ccc(F)cc2OCc2ccccc2)C[C@@H]2CC[C@H]1N2C(=O)NCCOc1ccccc1	-23	3569
COC(=O)c1nccnc1N	-12	3625
Cn1cc(C(=O)C(=O)NC2CC2)c2ccccc21	-9	3951
O=C1c2ccccc2C(=O)N1CCCCc1cn(C[C@H]2CC[C@@H]([C@@H]3CC[C@H](Cn4cc(CCCCN5C(=O)c6ccccc6C5=O)nn4)O3)O2)nn1	-3	3539
CCN(CC)CCCC(C)Nc1nccc2c(Cl)cccc12 (stereo unspecified)	-8	3722
O=C1OCCN1C(=O)[C@H]1[C@H](c2ccc(Cl)cc2)C(c2ccccc2)=NN1c1ccccc1	-10	3468
Clc1ccc(Sc2oc(/C=N/n3cnnc3)cc2Br)cc1	-18	19698*
COc1ccc([C@H]2CC(=O)C=C(c3ccc4c(c3)sc3ccccc34)C2)cc1	-19	4264
On1ccccc1=S	-37	5866
CC(=O)OC1CC(OC2C(O)CC(OC3C(O)CC(OC4CCC5(C)C(CCC6C5CCC5(C)C(C7=CC(=O)OC7)CCC65O)C4)OC3C)OC2C)OC(C)C1OC1OC(CO)C(O)C(O)C1O (stereo unspecified)	96*	2999
O=C(Nc1cccc(-c2nc3ncccc3o2)c1)c1ccc2c(c1)OCO2	5	3639
COc1cc(C(=O)NCCNC(=O)c2ccco2)cc(OC)c1OC	5	4347
CC(C)C[C@H]1CNC(=S)N1CC1CCCN1C[C@H](Cc1ccccc1)N1C[C@H](Cc2ccc(O)cc2)N(CC2CCCCCC2)C1=S (stereo partly specified)	-21	3787
COC(=O)C1=C(c2ccccc2OCc2ccccc2)C[C@@H]2CC[C@H]1N2C(=O)NCCCOC(C)C	-2	3923

Exported field by field: part of the list above
OCC[C@H]1C[C@H](O)[C@@H](O)[C@]2(CCc3ccccc3CO2)O1
  PrP UTR inh: -18 | Autofluor counter: 3049

C[C@H](CO)N1C[C@H](C)[C@@H](CN(C)C(=O)Nc2ccc(C(F)(F)F)cc2)Oc2c(NC(=O)Nc3ccc(C(F)(F)F)cc3)cccc2C1=O
  PrP UTR inh: 8 | Autofluor counter: 3928

The list goes on:
SMILES	PrP UTR inh	Autofluor counter
CCCCN1CC(=O)N2[C@H]3c4cc(Br)ccc4OC[C@@H]3[C@H](C(=O)OCC)[C@]2(C)C1=O	8	3899
O=C(O)c1cc2cc(Cl)ccc2[nH]1	-32	6094
COc1ccc(CN(C)C[C@H]2Oc3c(NC(=O)Nc4ccccc4)cccc3C(=O)N([C@H](C)CO)C[C@@H]2C)cc1	-32	3675
CCOC(=O)[C@@H]1[C@H]2COc3ccc(Br)cc3[C@@H]2N2C(=O)N(c3ccc(C)cc3)C(=O)[C@@]12C	-21	3911
O=C1CCC/C=C/C[C@@H](CC(=O)N(CCO)Cc2ccccc2)C(=O)NC[C@H](c2ccccc2)O1	-5	2969
Cc1csc2nc(COC(=O)c3ccc(Cl)c([N+](=O)[O-])c3)cc(=O)n12	-22	2991
COc1ccc(-c2ccc(-c3cc(=O)oc4cc(OC)c(OC)c(OC)c34)cc2)cc1F	-27	3751
CCSC(=O)N1c2ccc(OC)cc2C=CC1C#N (stereo unspecified)	42	3730
C#CCOCCOCCOCCNc1nc(N2CCN(C(=O)[C@H](CCC(=O)O)n3cc([C@@H](N)CO)nn3)CC2)nc(N2CCN(C(=O)[C@H](CCC(=O)O)n3cc([C@@H](N)CCSC)nn3)CC2)n1	-32	4107
Cc1ccc2cc(CCNC(=O)c3cccs3)c(=O)[nH]c2c1	-60	4503
O=C1c2ccccc2C(=O)N1CCc1c(-c2[nH]c3ccccc3c2CCN2C(=O)c3ccccc3C2=O)[nH]c2ccccc12	-29	3811
Cc1cn(CC(=O)N(C)Cc2ccco2)c(=O)[nH]c1=O	-8	2938
FC(F)(F)c1ccccc1NC(=S)N/N=C1\CC2CC=CC12 (stereo unspecified)	-50	3805
O=C(CSc1ccc([N+](=O)[O-])cc1)c1ccccc1	-12	4053
Cc1ccccc1-c1cccc([C@@H]2C[C@H]3[C@H](CON3C)CN2C(=O)CCc2ccccc2)c1	-10	3301
C[C@H](CO)N1C[C@H](C)[C@@H](CN(C)Cc2ccncc2)Oc2ccc(NC(=O)Cn3cnnn3)cc2C1=O	2	2850
O=C(Oc1cccc2ccccc12)c1ccccc1	-24	5135
C[C@H](CO)N1C[C@H](C)[C@@H](CN(C)Cc2ccc(C(=O)O)cc2)Oc2ccc(NS(C)(=O)=O)cc2C1=O	-1	2831
CC(C)CC(=O)OC(C)(C)[C@@H]1Cc2c(ccc3ccc(=O)oc23)O1	-14	3559
CSc1ccc(/C=N/Nc2cccc(C(=O)O)c2)cc1	39	3525
Cc1noc(C)c1NC(=O)Nc1ccc2c(c1)CC(=O)N([C@@H](C)CO)C[C@@H](C)[C@@H](CN(C)C(=O)Nc1cccc3ccccc13)O2	-22	2918
Oc1ccccc1/C=N/Nc1ccnc(SCc2ccccc2)n1	-9	2547
C#CCOCCOCCOCCNc1nc(N2CCN(C(=O)C([C@@H](C)O)n3cc([C@@H](N)CCCCN)nn3)CC2)nc(N2CCN(C(=O)[C@H](CO)n3cc([C@@H](N)C(C)C)nn3)CC2)n1 (stereo partly specified)	-37	3896
COc1cc(/C=N/NC(=O)Cc2ccc(Br)cc2)cc(OC)c1O	-14	4949
CC(C)(C)OC(=O)N(CCc1ccccc1)Cc1cccc(OCc2cccc(NC(=O)/C=C/c3ccccc3)c2)c1	0	2955
CN(C)c1nc(NNC(=O)c2ccccc2)nc(N(C)C)n1	-3	3337
Cc1ccc(NC(=O)C(C)Sc2nnc(C)n2C2CC2)cc1S(=O)(=O)N1CCOCC1 (stereo unspecified)	-12	3915
Cc1nc2c(o1)C(=O)c1ccccc1C2=Nc1ccccc1	48	2983
O=C1c2ccccc2/C(=C\c2ccc(Br)s2)N1c1ccccc1	-12	3782
O=C(Nc1ccccc1)OCCNC1CCCCC1	-9	3995
CC(C)C[C@@H](CN1C(N)=NC[C@@H]1C)NC(=O)CC12CC3CC(CC(C3)C1)C2	-15	3739
CN1C[C@@H]2[C@@H]3C(=O)N(C)C(=O)[C@@H]3[C@](C)(C1=O)N2C(=O)c1ccc(Cl)c(Cl)c1	-17	3026
O=C(Cn1cc(COc2ccc(Br)cc2)nn1)c1ccc(O)cc1	-5	3048
COc1ccccc1NS(=O)(=O)c1ccc(C(=O)NCC(c2cccs2)N2CCOCC2)cc1 (stereo unspecified)	-16	3940
Oc1c(CN2CCCC2)cc(COCc2ccccc2)c2cccnc12	23	3356
C#CCOCCOCCOCCNc1nc(N2CCOCC2)nc(N2CCN(C(=O)[C@H](Cc3ccc(O)cc3)n3cc(CCO)nn3)CC2)n1	-8	3526
N#Cc1ccccc1OCc1cn(CC(=O)c2ccc(O)cc2)nn1	-15	3977
Nc1ccc(S(=O)(=O)c2cc(O)c3ccccc3c2O)cc1	-20	2957
O=C(Nc1ccc(C(=O)N2CCCC2)cc1)C1CC1	-20	3720

Record cards, from the list above. Values in the order: PrP UTR inh, Autofluor counter
CSc1ccc(/C=N/Nc2cccc(C(=O)O)c2)cc1 is entered as 39, 3525
CCSC(=O)N1c2ccc(OC)cc2C=CC1C#N (stereo unspecified) is entered as 42, 3730
CC(=O)OC1CC(OC2C(O)CC(OC3C(O)CC(OC4CCC5(C)C(CCC6C5CCC5(C)C(C7=CC(=O)OC7)CCC65O)C4)OC3C)OC2C)OC(C)C1OC1OC(CO)C(O)C(O)C1O (stereo unspecified) is entered as 96*, 2999
O=C(Nc1ccccc1)OCCNC1CCCCC1 is entered as -9, 3995
COc1ccc(S(=O)(=O)Nc2ccc3c(c2)CC(=O)N([C@H](C)CO)C[C@H](C)[C@H](CN(C)C(=O)Nc2ccc4c(c2)OCO4)O3)cc1 is entered as -29, 3985
